# SARS PLP yeast: qHTS of Yeast-based Assay for SARS-CoV PLP; S. cerevisiae expressing SARS-CoV PLpro, growth rescue; control for the full effect not named in the record; Potency, µM (titrated, usually from 32.9 µM), without a hit: at the top dose activity, positive = growth rescue; 0.19% of 330,000 active; note: 0% is about no effect; nearly all actives have a fitted effect of over 55% in size; growth read by luminescence after 48 h
# LASV entry inh: qHTS for Inhibitors of binding or entry into cells for Lassa Virus; 1.2% of 300,000 active; AID 540256, 2011; Lassa virus pseudotype entry inhibition, cell reporter; control for the full effect not named in the record; Potency, µM (series often up to 37.9 µM), without a hit: at the top dose activity change, negative = inhibition, most hits filed as inhibitors; active means well fitted inhibition curve with a large enough effect; inconclusive means small, poorly fitted or top-dose-only effect, or effect the other way; inactive means flat fitted curve, though single readings scatter; tested in HEK293 cells; note: % is set by controls: 0 for no effect and ±100 for the full control effect; nearly all actives have a fitted effect of over 50% in size; luciferase read-out
# Cruzain Triton: qHTS Assay for Promiscuous and Specific Inhibitors of Cruzain (with detergent); Cruzipain (Trypanosoma cruzi), P25779; purified cruzain, Z-FR-AMC fluorescence, 0.01% Triton; Potency, µM, for inactives: max response, negative = inhibition, most hits filed as inhibitors; 0.43% of 200,000 active; active = well fitted curve in the direction sought with a large enough effect; inconclusive = small, poorly fitted or top-dose-only effect, or another doubt; inactive = no such curve, though single readings can be large; an effect the other way counts as inactive or inconclusive;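 note: plate controls were neutral wells for no effect and buffer without enzyme for full effect; nearly all actives have a fitted effect of over 40% in size; top concentration of the series not given in the record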
# Target sequence (P25779 123-467 limits assumed): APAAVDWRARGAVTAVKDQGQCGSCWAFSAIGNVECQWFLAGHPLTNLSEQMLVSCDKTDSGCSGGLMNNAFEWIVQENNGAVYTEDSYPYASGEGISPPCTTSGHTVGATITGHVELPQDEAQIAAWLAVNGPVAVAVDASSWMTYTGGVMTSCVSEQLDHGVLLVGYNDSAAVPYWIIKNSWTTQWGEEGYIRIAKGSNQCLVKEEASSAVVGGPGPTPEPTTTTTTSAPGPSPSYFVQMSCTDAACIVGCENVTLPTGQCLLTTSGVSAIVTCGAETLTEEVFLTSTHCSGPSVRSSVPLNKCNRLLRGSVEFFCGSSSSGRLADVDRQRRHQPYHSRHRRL
#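 Compounds were screened in titration against cruzain (1.5 nM) with 0.01% Triton X-100 to counter colloidal aggregation. Activity was the AMC fluorescence increase over 60 s after adding 2 uM Z-FR-AMC at pH 5.5.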
# Cruzain noTriton: qHTS Assay for Promiscuous and Specific Inhibitors of Cruzain (without detergent) | Potency, µM, for inactives: max response, negative = inhibition, most hits filed as inhibitors | 2.3% of 200,000 active | purified cruzain, Z-FR-AMC fluorescence, no detergent | Cruzipain (Trypanosoma cruzi), P25779 | AID 1476, 2009; active = well fitted curve in the direction sought with a large enough effect; inconclusive = small, poorly fitted or top-dose-only effect, or another doubt; inactive = no such curve, though single readings can be large; an effect the other way counts as inactive or inconclusive;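 note: plate controls were enzyme without inhibitor for no effect and buffer without enzyme for full effect; nearly all actives have a fitted effect of over 40% in size; top concentration of the series not given in the record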
#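 Purified cruzain at 1.5 nM, pre-incubated 15 min with compound at room temperature in 100 mM sodium acetate pH 5.5, 5 mM DTT, 0.00005% Triton X-100. Reaction started with 2 uM Z-FR-AMC; AMC fluorescence increase over 60 s gives rate.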
# Marburg entry inh: qHTS for inhibitors of binding or entry into cells for Marburg Virus; 1.8% of 300,000 active; Potency, µM (doses to about 37.8 µM), without a hit: at the top dose activity change, negative = inhibition, usual class: inhibitors; Marburg virus pseudotyped entry inhibition, cell reporter; control for the full effect not named in the record; about a third of the inactives were read at about 46 µM; AID 540276, 2011; active = well fitted inhibition curve with a large enough effect; inconclusive = small, poorly fitted or top-dose-only effect, or effect the other way; inactive = flat fitted curve, though single readings scatter; tested in HEK293 cells; about a fifth of its hits are not listed in these tables; note: % is set by controls: 0 for no effect and ±100 for the full control effect; luciferase read-out
# RE007 growth inh: qHTS Assay for Inhibitors of the HIV-1 protein Vpr; S. pombe RE007 Vpr strain, BacTiter-Glo ATP luminescence, 24 h; control for the full effect not named in the record; Potency, µM (series often up to 92.2 µM), inactives show at the top dose activity change, negative = less growth; 0.21% of 360,000 active; AID 651644, 2012; active = well fitted falling curve with a large enough effect; inconclusive = small, poorly fitted or top-dose-only effect; inactive = no such curve, though single readings can be large or run the other way;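 note: % is set by controls: 0 for no effect and ±100 for the full control effect; nearly all actives have a fitted effect of over 50% in size; the assay follows cell death caused by Vpr and the record does not say whether a fall means rescue or toxicity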
#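 Fission yeast RE007 carrying one integrated HIV-1 vpr copy, seeded at OD 0.01 in PMG+AL medium with 23 nL pinned compound. Grown 24 h at 30 degrees; viability read by BacTiter-Glo luminescence after 5 min.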
# 2A StopGo: High Throughput Screening for Foot and Mouth Disease Virus Antivirals; human cells with a luciferase reporter of 2A StopGo recoding; control for the full effect not named in the record; Potency, µM (highest dose often 57.9 µM), for inactives: at the top dose signal change, negative = less light; 1.2% of 410,000 active; AID 1159524, 2015; active = well fitted falling curve with a large enough effect; inconclusive = small, poorly fitted or top-dose-only effect; inactive = no such curve, though single readings can be large or run the other way; tested in HEK293T cells; note: % is set by controls: 0 for no effect and ±100 for the full control effect; nearly all actives have a fitted effect of over 45% in size; luciferase light after 4 h
# NS1 inh: qHTS Assay for Inhibitors of Influenza NS1 Protein Function; S. cerevisiae slowed by influenza A NS1, growth recovery by OD600; Potency, µM (titrated, usually from 46.1 µM), for inactives: top-dose activity, positive = more growth; 0.4% of 270,000 active; AID 2326, 2010; note: actives are rising curves; nearly all actives have a fitted effect of over 50% in size
#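 Read-out: OD600 growth recovery of NS1-expressing budding yeast. Cells grown overnight at 30C in -URA glucose medium, washed, resuspended and diluted 1:100 in 2% galactose assay medium, pH 6.0. Same strain lacking NS1 served as positive control.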
# * hit, by the source's call; ? = inconclusive; . = no result given; & = joins results of further samples; [ ] = another dose, or the depositor's remark. Unless noted, calls come from the whole dose curve; as a rule, active means well fitted rising curve with a large enough effect; inconclusive means small, poorly fitted or top-dose-only effect; inactive means no such curve, though single readings can be large or run the other way. Potency is the fitted concentration of half-maximal effect. Outcome played no part in choosing rows. Share with any hit: about 4.7%.
SMILES,SARS PLP yeast,LASV entry inh,Cruzain Triton,Cruzain noTriton,Marburg entry inh,RE007 growth inh,2A StopGo,NS1 inh
N#Cc1ccc(CSc2nc(N)cc(=O)[nH]2)cc1,-5%,.,.,.,.,6%,-2%,-21%
CCOC(=O)/C(=N\NC(=O)c1ccccc1)c1ccccc1,-2%,-25%,1.4%,2%,19%,0%,.,-95%
Cc1ccc(NC(=O)CCNS(=O)(=O)c2ccc3c(c2)CCC(=O)N3)c(Br)c1,1%,.,.,.,.,-3%,-1%,3%
O=C1c2ccccc2NC(c2ccc([N+](=O)[O-])cc2)N1O (stereo not given),?,?,.,.,?,29%,1%,-4%
Cc1cc(C(=O)NC(CC(C)C)C(=O)O)cc(C)c1[N+](=O)[O-] (stereo not given),0%,1%,-4.2%,-6%,30%,2%,-2%,-3%
O=C(O)CCC(=O)N1CCc2cc(S(=O)(=O)N3CC=C(c4ccccc4)CC3)ccc21,-1%,.,-1.1%,?,.,2%,-29%,?
COc1ccc(Cc2c(O)nc(SCC(=O)N3CCCCCC3)[nH]c2=O)cc1,-11%,15%,-9.8%,5%,29%,20%,18%,6%
Cc1cccc(N(CC(=O)NC2CCCC2)C(=O)CCCC(=O)Nc2ccccn2)c1,4%,10%,2.5%,2%,-1%,13%,9%,-4%
NC(=O)C1CCN(C(=O)CCC(=O)c2ccc(Br)cc2)CC1,2%,-9%,.,.,20%[46.1 µM],-7%,0%,0%
COC(=O)c1cc(NC(=O)CC2CCCC2)cc(C(=O)OC)c1,1%,1%,.,.,?,1%,-18%,6%
CCOC(=O)N1CCN(c2ccc(C(F)(F)F)cn2)CC1,14%,?,-1.4%,-7%,12%,-14%,-13%,7%
CC(C)CCNC(=O)NC(=O)COC(=O)c1cc(S(=O)(=O)N2CCOCC2)ccc1N1CCCCC1,13%,?,-1.7%,?,4%,3%,-2%,-3%
CC1(c2ccc3ccccc3c2)NC(=O)N(CC(=O)O)C1=O (stereo not given),5%,12%,.,.,1%[46.1 µM],-6%,1%,1%
O=C(CN1CCC(n2nnc3cc(F)ccc32)CC1)N1CCCc2ccccc21,-4%,-21%,0.8%,1%,?,-19%,?,-7%
CCOc1cc(CO)c(Br)cc1OCC(=O)O,1%,-1%,1.5%,-4%,6%,6%,-16%,?
Clc1ccccc1N=C1SCCS1,2%,10%,.,.,11%[46.1 µM],36%,23%,2%
COc1ccc(C(=O)CSc2nnc(CNc3ccc(C)cc3C)n2Cc2ccco2)cc1,-1%,?,-5.7%,?,-40%&-40%,-6%,-18%,6%
CCc1c(C2(O)CCCCC2)[nH]c2ccc(C(F)(F)F)cc12,-34%,.,.,.,.,?,40µM*,-135%
Cc1ccc(C)c(CN2CCC(n3nccc3NC(=O)CCCc3ccccc3)CC2)c1,2%,.,.,.,.,-3%,-14%,-4%
C/C(CC1CC(C)OC1=O)=N\NC(N)=S (stereo not given),?,.,-5.1%,-1%,.,-7%,7%,-6%
CCC(C)(C)NC(=O)C1CCN(S(=O)(=O)c2ccc3c(c2)CCCN3C(C)=O)CC1,.,?,-0.4%,9%,.,.,-12%,.
O=C(N/N=C/C=N/NC(=O)c1ccco1)c1ccco1,-9%,21%[46.1 µM],.,.,2%[46.1 µM],7%,-11%,-49%
O=C(COc1ccccc1)N1CCN(c2ncccn2)CC1,1%,15%,.,.,14%[46.1 µM],2%,-11%,.
CC(C)OCCCN1CN(S(=O)(=O)c2ccc(Cl)cc2)c2nc3ccccc3nc21,0%,-2%,-7.9%,?,-13%,0%,8%,8%
COc1ccc(CC(=O)NNC(=S)NCC2CC2)cc1OC,0%,1%[46.1 µM],.,.,?,-2%,-1%,6%
CN(CC(=O)Nc1ccc(SC(F)F)cc1)C1CCCCC1,0%,-15%,.,.,-8%[46.1 µM],7%,-1%,-5%
O=C(Nc1ccccc1C(F)(F)F)N1CCC(N2CCCCC2)CC1,0%,-11%,1.6%,-1%,0%,4%,-20%,-11%
CN(C)CCNC(=O)/C(=N\O)c1ccccn1,-2%,-9%,.,.,0%,11%,-24%,-1%
CCN=C1SC(C(=O)Nc2ccccc2)CC(=O)N1CC (stereo not given),8%,5%,7.8%,6%,10%,7%,.,22%
O=C(O)C1(c2ccccc2)CCN(S(=O)(=O)c2cccs2)CC1,16%,?,.,.,-3%,35%,-6%,.
N=c1c2c3c(sc2ncn1CCCO)CCCC3,4%[6.58 µM],8%,-1.7%,-3%,?,-3%,-13%,-4%
COc1ccc(Nc2nc(N/N=C/c3ccc(N(C)C)cc3)nc(C)c2[N+](=O)[O-])cc1,12%,?,-9.7%,?,23%,19%,-16%,-3%
CCCn1c(SCC(=O)N(CC)c2c(N)n(Cc3ccccc3)c(=O)[nH]c2=O)nnc1-c1ccncc1,.,3%,.,.,12%,?,-14%,.
CC(CCN1CCN(c2ccccc2)CC1)c1ccccc1 (stereo not given),2%,-17%[46.1 µM],.,.,?,-2%,-3%,-6%
COc1cccc2cc(C(=O)C3=C(O)C(=O)N(CCN4CCOCC4)C3c3ccc(C(C)(C)C)cc3)oc12 (stereo not given),1%,.,.,.,.,-7%,-25%,22%
COC(=O)C[N+](C)(C)CC#Cc1ccccc1,9%,5.2µM*,-3.9%,-2%,2%,35%,-16%,-7%
CNc1ccccc1C(C)(C)c1cc(-c2ccc(F)cc2)no1,-14%,-14%,-8.6%,-10%,?,15%,?,-10%
Cc1ccc2c(c1)-c1onc(C(=O)N3CCN(c4cc(C)ccc4C)CC3)c1CO2,.,-1%[46.1 µM],-1.3%,6%,.,.,-22%,.
CC1CCCCN1CCCNC(=O)CN1C(=O)CSc2ccc(S(=O)(=O)N3CCOCC3)cc21 (stereo not given),-3%,20%[46.1 µM],0.6%,-18%,.,7%,-16%&-1%,-3%
CCc1noc(C)c1C(=O)N1CC(C)OC(C)C1 (stereo not given),-15%,12%,7.7%,-15%,18%,-7%,1%,2%
Cc1ccc(NC(=O)c2cnccn2)c(OC(F)F)c1,-4%,5%,-0.7%,0%,-3%,17%,20%,-5%
COc1cc(NC(=S)N2CCN(CCO)CC2)cc(OC)c1,-3%,4%[46.1 µM],.,.,?,-9%,8%,5%
COc1ccccc1/C=C(/NC(=O)c1ccc(Cl)cc1Cl)C(=O)O,-1%,5%[46.1 µM],.,.,12%[46.1 µM],0%,14%,2%
CCc1cccc(NC(=O)c2cccc3c2C(=O)N(C2CCCCC2)C3)c1,1%,27%[46.1 µM],-2.5%,-4%,-1%&-1%[46.1 µM],1%,-11%&-15%,-6%
CCC(C)N(C(=O)COC(=O)c1nc2nc(C)cc(C)n2n1)C1CCS(=O)(=O)C1 (stereo not given),-2%,8%,.,.,?,5%,-8%,.
CCC(C)NC(=O)C1c2cc(OC)c(OC)cc2C(=O)N(C)C1c1ccc(OC)cc1 (stereo not given),-17%,-8%,2.2%,-9%,-18%,21%,6%,1%
CC1(C)Cc2c(c(N3CCCC3)nc3sc4c(N5CCN(CCO)CC5)ncnc4c23)CO1,1%,?,-13%,?,?,3%,.,-51%
CCCCNC(=O)C1CCN(S(=O)(=O)N2CCCCCC2)CC1,14%,2%,-1.3%,14%,10%,4%,-7%,-7%
COc1ccc(CC(=O)n2nc(-c3ccc(Cl)cc3)nc2NCc2ccco2)cc1,3%,3%,-1.8%,?,?,-16%,33%[activator],-6%
O=C(NCc1ccc(F)cc1)c1ccccc1OCc1ccccc1,-4%,?,-4.9%,2%,?,-7%,?,-14%
# New compounds follow.
SMILES,SARS PLP yeast,LASV entry inh,Cruzain Triton,Cruzain noTriton,Marburg entry inh,RE007 growth inh,2A StopGo,NS1 inh
Cc1ccc(CS(=O)(=O)Cc2ccc(C(=O)NCC3CCCO3)o2)cc1 (stereo not given),3%,4%,1.7%,7%,1%,-7%,.,-13%
CC1(C)Oc2ccc(C(=O)N3CCCC3)cc2N(CC(=O)NCc2ccccc2)C1=O,4%,-3%,7.5%,2%,2%,9%,25%,4%
Cc1nn(C)c2c1c(C(F)(F)F)cc(=O)n2C(C)C(=O)NCc1ccccc1Cl (stereo not given),.,0%[46.1 µM],12%,-4%,.,.,-8%,.
COc1ccc(N2C(S)=C(C#N)C(=O)NC23CCCCC3)cc1,7%,3%,.,.,-22%[14.2 µM],5%,36%[activator],0%
Cc1ccc(S(=O)(=O)N2CCN(C(=O)Cc3c(F)cccc3Cl)CC2)cc1,.,-6%,.,.,-5%,-1%,-17%,.
CCOc1ccc(C(C)NC(=S)NCc2ccc(Cl)cc2)cc1 (stereo not given),0%,.,.,.,.,-5%,3%,4%
Cc1cccc(NC(=O)C2(C)CC3c4ccccc4C2c2ccccc23)c1C (stereo not given),-35%,?,-0.1%,-19%,?,16%,-29%,-5%
O=c1[nH]c(CSc2ccccn2)nc2c1oc1ccccc12,-1%,5.6µM*,.,.,?,-2%,-29%,-1%
CC1(c2ccc3ccccc3c2)NC(=O)N(CC(=O)N2CCN(Cc3ccc(C#N)cc3)CC2)C1=O (stereo not given),2%,?,.,.,0.56µM*,5%,?,.
CCCn1c(N)c(N(CCOC)C(=O)c2ccc(N3CCCC3=O)cc2)c(=O)[nH]c1=O,-3%,1%,.,.,7%[46.1 µM],8%,1%,.
COc1ccc(CNC(=O)CCCn2nc(C)c3c(C)n(-c4ccc(C)cc4)nc3c2=O)cc1OC,23%,?,-1.0%,15%,4%&4%[46.1 µM],-16%,-23%&-22%,1%
CCOC(=O)c1c(S(=O)(=O)NCC(=O)N2CCN(c3cccc(Cl)c3)CC2)c(C)n(C)c1C,.,-16%[46.1 µM],2.7%,?,.,.,-18%,.

# Assay outcomes as filed in PubChem BioAssay.
